High-throughput results from PubChem.
FPR – small-molecule ligands of human FPR – U937-FPR cells, fMLFK-FITC, flow cytometry, primary screen (AID 362); U937-FPR cells, fMLFK-FITC displacement, flow cytometry; stronger effect = higher value; test concentration not given here; most inactive calls were filed without a number and no value below 0 was filed; inhibition, %; 4,300 compounds, 1% hits;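 active means inhibition of labelled peptide binding to the formyl peptide receptor of at least 65%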;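 further: plate controls were buffer control wells for no effect and unlabeled fMLFF blocking peptide for full effect; higher means less cell fluorescence so more probe displaced; part of the set was picked by virtual screening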
* = called active by the depositor; i = inactive. Not all compounds are listed; count on the stated rates, not on these rows.

SMILES | FPR
COc1ccc(-n2nnnc2C2(N3CCOCC3)CCCCC2)cc1 | i
O=S1(=O)CC2(N3CCOCC3)CCCCCCC21 (stereo not given) | 2.1
Cc1occc1C(=O)N/N=C/C12CC[C@@H](O)CC1(O)CC[C@@H]1[C@@H]2CCC2(C)C(C3=CC(=O)OC3)CCC12O (stereo not given in full) | 13.6
CCOC(=O)CN1C(=O)C2(C(C(=O)OCC)=C(N)OC3=C2C(=O)CC(C)(C)C3)c2ccccc21 (stereo not given) | 12.1
CCOC(=O)C(C)Oc1cc(C)cc2oc(=O)c3c(c12)CCCC3 (stereo not given) | i
CCn1cc(C(=O)N2CC3CC(C2)c2cccc(=O)n2C3)c(=O)c2ccc(C)nc21 (stereo not given) | i

Reformatted in CSV form: entries from further up.
Molecule,FPR
O=S1(=O)CC2(N3CCOCC3)CCCCCCC21 (stereo not given),2.1
Cc1occc1C(=O)N/N=C/C12CC[C@@H](O)CC1(O)CC[C@@H]1[C@@H]2CCC2(C)C(C3=CC(=O)OC3)CCC12O (stereo not given in full),13.6
CCOC(=O)CN1C(=O)C2(C(C(=O)OCC)=C(N)OC3=C2C(=O)CC(C)(C)C3)c2ccccc21 (stereo not given),12.1
